From PubChem
HNF4A DNA FP = change in binding of human HNF4 alpha to DNA; P41235; HNF4a-FITC DNA binding, fluorescence polarization, 1 h; activity change, % at 10 µM; 360,000 tested, 0.3% active; in the data active means activity change above about 30%, passing the limit was not always enough;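 further: controls were the assay level and a saturating level of protein; the project sought stronger binding though the title names inhibitors; some compounds called inactive have numbers as strong as hits; positive values seem to mean higher polarization but the record does not say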
Beta2AR agonist = human beta-2 adrenergic receptor agonism by FAP | P07550 | Am2.2-beta2AR cells, FAP receptor internalization, flow cytometry; reference of the scale not given here | AID 504454 | 340,000 tested, 0.43% active | response, % (no concentration beside the values);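 active means response above a set limit, near 3 SD of response in nonfluorescent compounds, cut at about 42% in these data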;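 further: stock transfer was 100 nL into about 11 µL; a reference agonist was the positive control; negative values mostly stem from fluorescent compounds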
Target sequence (P07550 whole entry, looked up): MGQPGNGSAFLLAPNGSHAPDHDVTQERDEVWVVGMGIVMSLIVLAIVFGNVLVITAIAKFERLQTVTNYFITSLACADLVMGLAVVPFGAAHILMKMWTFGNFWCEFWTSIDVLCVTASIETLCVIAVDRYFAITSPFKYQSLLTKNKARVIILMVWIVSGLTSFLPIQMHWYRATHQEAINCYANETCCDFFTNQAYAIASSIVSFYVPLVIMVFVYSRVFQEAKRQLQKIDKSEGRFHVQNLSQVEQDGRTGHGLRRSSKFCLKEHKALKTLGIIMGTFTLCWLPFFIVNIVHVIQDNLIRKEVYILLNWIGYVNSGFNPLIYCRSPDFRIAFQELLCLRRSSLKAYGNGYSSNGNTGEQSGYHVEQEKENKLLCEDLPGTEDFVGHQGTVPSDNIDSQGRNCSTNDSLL
UCH37 inh = inhibitors of human deubiquitinating enzyme UCH37; Q9Y5K5; purified proteasome/UCH37, Ub-AMC cleavage fluorescence; inhibition, % (concentration not given with the values); 330,000 tested, 0.33% active; AID 588478;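 active means mean of two replicates above 20%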;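 further: 0% = compound-free wells with enzyme and 100% = wells lacking proteasome; stock transfer was 100 nL into about 20 µL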
Target sequence (Q9Y5K5 whole entry, looked up): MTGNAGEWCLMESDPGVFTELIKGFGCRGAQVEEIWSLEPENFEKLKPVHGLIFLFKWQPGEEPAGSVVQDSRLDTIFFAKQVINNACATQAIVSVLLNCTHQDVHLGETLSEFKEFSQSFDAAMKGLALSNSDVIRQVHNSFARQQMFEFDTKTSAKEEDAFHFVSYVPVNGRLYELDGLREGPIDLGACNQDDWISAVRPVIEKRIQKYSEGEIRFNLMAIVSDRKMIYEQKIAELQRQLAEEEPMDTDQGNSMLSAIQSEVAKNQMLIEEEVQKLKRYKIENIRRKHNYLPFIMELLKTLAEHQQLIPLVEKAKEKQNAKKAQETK
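system = Proteasome-associated human UCH37 deubiquitinase | amount = 0.15 nM proteasome as dispensed | medium = pH 7.4 Tris-HCl (50 mM) with ovalbumin, ATP-MgCl2, DTT | incubation = 30 min preincubation with enzyme, 25 min cleavage at room temperature | detection = AMC fluorescence 355/460 nm | read-out basis = percent inhibition | controls = no-proteasome and no-compound wells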
Vif A3G = inhibitors of Vif binding to APOBEC3G peptide, primary screen, biochemical, TR-FRET, GST-Vif 1-94, biotin-A3G peptide, dose response retest (AID 1117319); TR-FRET GST-Vif / biotin-A3G peptide binding; higher % means a stronger effect; test concentration not given here; strong numbers were not always called active; inhibition, %; hits with a dose series show IC50 in µM; 260,000 tested, 0.57% active;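 active means above the screen mean plus three standard deviations and confirmed in dose response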;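 further: Vif residues 1-94 fused to GST binding biotinylated APOBEC3G peptide 110-148; 0% = full assay without inhibitor and 100% = GST in place of GST-Vif; retest series ran down from 100 µM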
E coli growth = E. coli growth inhibition | Escherichia coli growth, OD600, 23 h; active compounds read low | 330,000 tested, 0.21% active | OD600 absorbance (no concentration beside the values);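 active means OD600 absorbance below the run mean of sample wells minus 3.6 SD, in any replicate, cut at about 0.56 in these data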;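 further: stock transfer was 300 nL into about 60 µL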
LANA-H2A inh = blocks KSHV LANA binding to histone H2A/H2B | cell-free LANA-H2A/H2B peptide, fluorescence polarization | Q9QR71 | inhibition, % (no concentration beside the values) | 320,000 tested, 0.6% active; in the data active means inhibition mostly above about 10%, no sharp cut-off; inactive means mostly below about 6.7%;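 further: stock transfer was 7.5 nL into about 10 µL; 0% = median of vehicle wells and 100% = median of positive control wells; one replicate is shown; the record names a cut of 25% in any replicate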
A1 inh = inhibitors of the anti-apoptotic protein A1, read as caspase activation; caspase activation, % (test concentration not listed); 330,000 tested, 0.066% active; AID 2462; MEF A1-2A-BIM cells, Caspase-Glo 3/7 luminescence, 3 h; percent of clofoctol response, vehicle zero;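 active means over half of replicate activation scores above 10%, or exactly half above 10 with the replicate mean above 10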;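 further: wells of about 30 µL received 50 nL stock; many hits fall short of the cut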
* marks the source's active call; other numbers are inactive results; i = inactive; x = not tested or not shown; & = joins results of further samples.

SMILES	LANA-H2A inh	UCH37 inh	HNF4A DNA FP	Beta2AR agonist	Vif A3G	A1 inh	E coli growth
O=C(NCc1ccc(F)cc1)C1Cc2ccccc2CN1C(=O)c1ccco1 (stereo not drawn)	0.9	-3.2	4.5	-6	26%	-0.3	0.66
NS(=O)(=O)c1ccc(-n2nncc2-c2ccco2)cc1	-1.5	0.8	-2.5	6	6%	1.0	0.69
CCCCC(=O)O[C@H]1CC[C@H]2[C@@H]3CCc4cc(O)ccc4[C@H]3CC[C@]12C	-14	3.1	-0.1	43*	31%	-0.1	x
Cc1nn(Cc2ccccc2)c(C)c1C(=O)N1CCN(S(=O)(=O)/C=C/c2ccccc2)CC1	1.8	2.1	9.1	10	x	0.7	0.72
O=C(Nc1ccccc1C(=O)N1CCOCC1)c1ccc(Cl)cc1	5.0	-0.4	-3.0	5	-3%	-0.1	0.69
O=C(COC(=O)c1cnccn1)NCCc1ccccc1	-3.7	-0.4	1.7	-1	16%	1.2	0.66
COC(=O)c1cc(S(=O)(=O)N2CCC(c3ccccc3)C2)c[nH]1 (stereo not drawn)	0.4	1.4	0.3	0	x	-0.2	0.7
CC(C)C[C@H](NC(=O)CCn1nnc2ccccc2c1=O)C(=O)O	1.7	1.6	0.6	-7	2%	0.0	0.7
C=C(C)c1cccc(C(C)(C)NC(=O)NC2CCCC2)c1	0.9	4.0	-1.9	-5	x	0.3	0.67
Cc1ccccc1OCCn1c(=O)sc2ccccc21	2.7	5.8	-1.1	-2	0%	-0.6	0.68
COc1ccc(C(=O)OCC(=O)N2CCc3ccccc3C2)cc1OC	1.7	-0.5	2.6	1	-4%	-0.9	0.68
CCOc1ccc(NC(=O)CSc2nnc(Cc3cccn3C)n2-c2ccc(F)cc2)cc1	6.6	2.8	3.2	-8	27%	3.4	0.77
O=S(=O)(NC1CCCCCCC1)c1ccc(F)cc1	3.5	-1.4	-1.1	-4	x	0.4	0.64
CNc1nc(NN)nc(Nc2ccccc2)n1	-7.6	-2.5	2.1	-4	x	-0.5	0.68
Cc1nc2c(nnn2Cc2c(Cl)cccc2Cl)c(=O)[nH]1	-9.1	0.6	2.1	13	x	-0.4	0.65
CC1CN(Cc2ccccc2)C(=S)N(c2ccccc2)C1=O (stereo not drawn)	x	-1.3	-2.8	11	-7%	x	0.69
CCOc1ccccc1Oc1coc2cc(OCC(=O)O)ccc2c1=O	-2.1	1.1	-4.0	1	-5%	0.3	0.74
O=C(N/N=C\c1ccccn1)C1COc2cc3ccccc3cc2O1 (stereo not drawn)	-0.7	x	0.5	4	3%	-0.9	x
COC(=O)C(NC=O)C(O)(Cc1ccccc1)C(F)(F)F (stereo not drawn)	-1.0	2.6	2.3	-5	3%	-0.5	0.63
COc1ccccc1CN(C(=O)c1ccco1)C(C(=O)NC1CCCC1)c1ccncc1 (stereo not drawn)	-1.6	-1.3	6.2	-6	5%	0.5	0.71
COc1cc(-c2ccc3oc(-c4ccsc4)c(C#CC4(O)CCCCC4)c3c2)cc(OC)c1OC	1.9	-54	0.7	13	x	1.1	0.73
CCc1ccc(NC(=S)NCC2CCCN2CC)cc1 (stereo not drawn)	-3.4	2.0	0.5	8	8%	0.4	0.71
O=C(Nc1ccc(Cl)cc1F)C1CCN(S(=O)(=O)c2cccnc2)CC1	-2.8	2.0	1.8	2	17%	-0.5	0.76
C=CCn1c(SCc2nc3ccccc3[nH]2)nnc1-c1ccc(OC)cc1	3.9	-3.5	0.1	-7	-7%	-1.1	0.75
Nc1nc2n(n1)C(c1cccs1)CC(c1ccccc1)N2 (stereo not drawn)	3.8	-7.7	-6.5	16	-1%	0.5	0.7
CCOC(=O)N1CCN(C(=O)CSc2ccc(C(=O)OC)cc2[N+](=O)[O-])CC1	0.3	7.6	2.6	2	1%	-0.3	0.64
CCOC(=O)c1ccc(NC(=S)NCc2ccc(S(N)(=O)=O)cc2)cc1	-9.3	3.7	-0.2	2	-2%	1.1	0.7
O=c1[nH][nH]cc1C=NCc1cccnc1	0.6	3.7	0.5	-4	-8%	-0.1	0.69
CC(C)(C)C(=O)Nc1cccc(C(=O)c2cccc(NC(=O)C(C)(C)C)c2)c1	-1.0	1.5	2.2	8	-66%	0.5	0.74
O=C(CN(Cc1ccc2c(c1)OCO2)C(=O)CSc1nc2ccccc2o1)NC1CCCCC1	-0.5	1.9	-0.7	-1	23%&-10%	0.5	0.74
COc1cccc(NC(=O)CN(C)C(C)C(=O)Nc2ccc(S(=O)(=O)N3CCCC3)cc2)c1 (stereo not drawn)	-4.9	-1.5	-4.8	-6	-6%	-0.4	0.73
O=C1C=CN2CCCCC2CC1 (stereo not drawn)	i	-2.3	-3.5	3	6%	-1.6	0.7
O=C1c2ccccc2C(Nc2ccc(Cl)cc2)N1CCN1CCOCC1 (stereo not drawn)	-2.5	1.1	1.3	-4	0%	x	0.72
O=C1c2cccnc2C(=O)N1Cc1ccc(F)cc1	-5.5	4.5	0.1	0	1%	-0.5	0.76
CC(=O)Nc1ccc(S(=O)(=O)N(C)CC(=O)OCC(=O)NC(C)C23CC4CC(CC(C4)C2)C3)cc1 (stereo not drawn)	2.0	0.9	-1.8	7	27%	0.7	0.6
CN(c1ccccc1)S(=O)(=O)c1ccc(C(=O)NCc2ccc(F)cc2)cc1	2.2	-0.2	1.9	-8	x	1.3	0.66
O=c1oc(/C=C/c2ccco2)nc2sc3c(c12)CCC3	-5.1	x	-11	-7	16µM*	-9.2	x
Cc1cc(C(=O)OCC(=O)Nc2cc(S(=O)(=O)N(C)C)ccc2Cl)c2ccccc2n1	-3.5	3.5	3.0	3	24%	-0.3	0.71
COc1cccc(C(=O)/C=C/Nc2ccc(S(=O)(=O)Nc3nc(C)cc(C)n3)cc2)c1	1.6	-3.3	5.2	1	x	-0.8	0.65
CC(=O)Nc1ccc(NC(=O)c2ccccc2-n2cnnn2)cc1	x	4.9	-0.5	3	3%	x	0.69
FC(F)(F)c1nnc(-c2ccccc2)nc1Sc1ccccc1	5.3	3.7	0.9	42	0%	-0.2	0.72
Cc1ccc(OCc2ccc(C(=O)Nc3nccs3)o2)cc1C	-5.6	-0.3	-2.4	-1	1%	-0.3	0.71
CN(Cc1cn(C)nc1-c1ccccc1F)Cc1nccn1C	-1.4	0.6	-2.1	-9	30%	0.7	0.62
Cn1ccnc1SCC(=O)Nc1ccc(Oc2ccccc2)cc1	-2.1	0.1	0.8	-9	3%	-0.8	0.7
COc1ccc(Cl)cc1C(=O)NCc1ccco1	-2.0	4.6	-5.9	-5	15%	0.3	0.68
Cc1ccc2cc(C#N)c(SCC(=O)NCC3CCCO3)nc2c1 (stereo not drawn)	-0.8	-4.7	2.3	9	-23%	0.1	0.8
Cc1ccc(NC(=O)COC(=O)C2CCC(=O)N2)c(S(=O)(=O)N2CCOCC2)c1 (stereo not drawn)	3.8	1.7	-4.8	6	-1%	-0.1	0.69
O=C1CC(N(Cc2ccco2)C(=O)Nc2ccc(F)cc2)C(=O)N1c1ccc(F)cc1 (stereo not drawn)	-3.7	1.5	1.3	11	0%	-0.4	0.72
CC1(C)Cc2cccc(OCC(=O)Nc3ccc(OCC(N)=O)cc3)c2O1	-0.9	1.1	4.2	13	4%	0.0	0.71
O=C(CSc1ncn[nH]1)NCCc1ccc(Cl)cc1Cl	1.8	1.0	2.1	0	x	0.2	0.63

Compound profiles (already shown). Order of screens: LANA-H2A inh	UCH37 inh	HNF4A DNA FP	Beta2AR agonist	Vif A3G	A1 inh	E coli growth
Shown for `CCOc1ccc(NC(=O)CSc2nnc(Cc3cccn3C)n2-c2ccc(F)cc2)cc1` : 6.6	2.8	3.2	-8	27%	3.4	0.77
Shown for `Cn1ccnc1SCC(=O)Nc1ccc(Oc2ccccc2)cc1` : -2.1	0.1	0.8	-9	3%	-0.8	0.7

Five entries already listed, ordered by the number in LANA-H2A inh, falling.
| SMILES | LANA-H2A inh | UCH37 inh | HNF4A DNA FP | Beta2AR agonist | Vif A3G |
| --- | --- | --- | --- | --- | --- |
| COc1cccc(C(=O)/C=C/Nc2ccc(S(=O)(=O)Nc3nc(C)cc(C)n3)cc2)c1 | 1.6 | -3.3 | 5.2 | 1 | x |
| Cc1ccc2cc(C#N)c(SCC(=O)NCC3CCCO3)nc2c1 (stereo not drawn) | -0.8 | -4.7 | 2.3 | 9 | -23% |
| CN(Cc1cn(C)nc1-c1ccccc1F)Cc1nccn1C | -1.4 | 0.6 | -2.1 | -9 | 30% |
| COc1ccc(Cl)cc1C(=O)NCc1ccco1 | -2.0 | 4.6 | -5.9 | -5 | 15% |
| O=C1CC(N(Cc2ccco2)C(=O)Nc2ccc(F)cc2)C(=O)N1c1ccc(F)cc1 (stereo not drawn) | -3.7 | 1.5 | 1.3 | 11 | 0% |

(cont.)
SMILES	LANA-H2A inh	UCH37 inh	HNF4A DNA FP	Beta2AR agonist	Vif A3G	A1 inh	E coli growth
COc1ccc(-n2c(SCC(=O)NCC3CCCO3)nc3c(c2=O)SCC3)cc1 (stereo not drawn)	-1.7	4.4	-3.9	3	-4%	-0.3	0.69
COc1cc(C(=O)NCc2ccc(S(N)(=O)=O)cc2)ccc1OCC(=O)Nc1cccc(C(F)(F)F)c1	-2.3	-1.8	-1.8	-5	-4%	0.0	0.62
COc1ccc(-c2nnn(CC(=O)N(CCCO)C(C(=O)NC3CCCC3)c3ccc(F)cc3)n2)cc1 (stereo not drawn)	-5.0	3.2	0.8	-12	x	-0.6	0.66
Cc1nc2ccc(S(=O)(=O)NCC(=O)N(C)Cc3ccccc3)cc2s1	1.6	-1.0	-1.1	-4	-12%	0.8	0.68
Cc1nc2c(cc(Oc3ccc(S(=O)(=O)N4CCOCC4)cn3)c3ccsc32)s1	1.1	4.5	6.2	2	2%	-3.5	0.73
CC(=O)OC1COC(OC2C(O)C(C)OC(OC3C(OC4CCC5(C)C(CCC6(C)C5CC=C5C7CC(C)(C)CCC7(C(=O)O)CCC56C)C4(C)CO)OCC(O)C3O)C2O)C(O)C1OC(C)=O (stereo not drawn)	-2.0	x	x	x	6%	-0.1	x
COc1cccc(/C=N/NC(=S)NC2CC3CC2C2C=CCC32)c1O (stereo not drawn)	-0.4	x	-1.6	0	-8%	0.1	x
CCn1cc(S(=O)(=O)CC(=O)Nc2ccc3c(c2)OCO3)c2ccccc21	2.0	1.0	-1.1	-51	x	0.1	0.74
COc1ccc(CCN(Cc2cc3cccc(C)c3[nH]c2=O)C(=O)N2CCCC2)cc1OC	4.9	-1.7	-0.2	-9	7%	1.8	0.67
O=C(NCCCN1CCCC1)C1CCN(C(=O)c2cc3sccc3n2Cc2ccc(F)cc2)CC1	-6.7	-1.9	0.1	6	-4%&-6%	-0.3	0.68
COc1ccccc1CCC(=O)Nc1cccc(S(=O)(=O)N2CCCC2)c1	-3.6	1.3	-2.0	4	x	0.6	0.73
COc1ccc(NC(=O)C2CCN(S(=O)(=O)c3ccc4c(c3)NC(=O)C(C)S4)CC2)cc1 (stereo not drawn)	-0.9	2.9	-1.2	1	x	1.1	0.72
COC(=O)CCC(=O)Nc1ccc(N=Nc2ccccc2)cc1	-2.1	9.2	-2.2	5	11%	-2.4	0.68
COc1ccc(OC)c(CN2CCN(C(=O)CCNC(=O)c3ccc(Br)cc3)CC2)c1	2.1	-0.5	-0.9	-1	2%	0.6	0.63
Cc1noc(C)c1COc1cccc(C(=O)OC(C)C#N)c1 (stereo not drawn)	3.1	2.1	-6.6	-4	-7%	1.2	0.66
CCOC(=O)C1C(=O)N(C(=O)c2ccc(OC)cc2)CC1c1ccccc1 (stereo not drawn)	-0.2	-1.5	-18	11	4%	-1.0	0.71
CN=C1SC(CC(=O)Nc2ccc(C(=O)O)cc2)C(=O)N1C (stereo not drawn)	3.1	1.7	-0.2	2	2%	-1.1	0.64
Cc1ccsc1CNn1cnnc1SCc1ccc(Cl)cc1	-5.5	2.9	3.5	-4	x	0.2	0.69
